VDR inh: vitamin D3 receptor (human) inhibition. 400,000 tested, 0.93% active. Potency, µM, inactives show max response, negative = inhibition, usual class: inhibitors. P11473. VDR-SRC2-3 peptide fluorescence polarization, 2 h. AID 504847; active = well fitted inhibition curve with a large enough effect; inconclusive = small, poorly fitted or top-dose-only effect, or another doubt; inactive = no such curve, though single readings can be large or run the other way; also: series mostly up to about 120 µM
Target sequence (P11473 whole entry, looked up): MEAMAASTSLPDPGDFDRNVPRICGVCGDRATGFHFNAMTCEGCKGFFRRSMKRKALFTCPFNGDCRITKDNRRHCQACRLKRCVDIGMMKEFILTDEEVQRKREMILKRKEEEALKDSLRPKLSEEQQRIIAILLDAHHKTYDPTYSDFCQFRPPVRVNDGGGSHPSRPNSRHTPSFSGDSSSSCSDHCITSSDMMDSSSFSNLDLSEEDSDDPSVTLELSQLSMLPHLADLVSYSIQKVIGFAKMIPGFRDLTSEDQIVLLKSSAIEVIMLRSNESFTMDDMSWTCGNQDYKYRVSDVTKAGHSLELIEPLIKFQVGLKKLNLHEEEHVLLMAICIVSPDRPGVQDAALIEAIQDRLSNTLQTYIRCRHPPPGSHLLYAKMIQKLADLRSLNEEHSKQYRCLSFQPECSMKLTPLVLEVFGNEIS
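The screen uses fluorescence polarization to detect compounds that interfere with recruitment of the SRC2-3 coactivator peptide to VDR; plates are read after 2 h at room temperature.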
Active calls of the source: *; u = inconclusive; & = joins results of further samples. % is scaled to controls: 0 for no effect and ±100 for the full control effect; potency is read from the fitted curve at half-maximal effect. Only part of the results is shown, so the mix of outcomes need not match the whole.

SMILES | VDR inh
Cc1ccc(C23CC4CC(CC(C(=O)NN)(C4)C2)C3)cc1 | -5%
COc1ncccc1C(=O)N1CCCC(N2CCN(c3ccc(F)cc3)CC2)C1 (stereo not drawn) | -14%
Cn1nnnc1SCC(=O)Nc1nc2ccccc2s1 | -4%
COc1ccc(OCC(O)Cn2c(NCCO)nc3c2c(=O)n(C)c(=O)n3C)cc1 (stereo not drawn) | 8%
OCCC1CN(Cc2nc(-c3ccccc3)cs2)CCN1CCc1ccccc1 (stereo not drawn) | -15%
CN(CC(=O)Nc1cccc(F)c1)C(=O)c1cccc(S(=O)(=O)N2CC3(C)CC2CC(C)(C)C3)c1 (stereo not drawn) | -25%
O=C(NCCC1CCCCN1S(=O)(=O)c1ccccc1)C(=O)NCc1ccco1 (stereo not drawn) | -13%
CCCC(=O)C1=C(c2ccc(C)c(C)c2)N(C(=O)CCC)n2c(CC)nnc2S1 | -2%
Cc1c(C(=O)N2CCCCCC2)c(S(=O)(=O)NCc2ccccc2Cl)c(C)n1C | 0%
C#CCOCCOCCOCCNc1nc(N2CCOCC2)nc(N2CCN(C(=O)Cn3cc(CC(C)O)nn3)CC2)n1 (stereo not drawn) | -8%
COc1cccc(OC)c1C(=O)NC(=O)Oc1c(F)cccc1F | -5%
COc1ccc(NC(=O)c2cc3ccccc3o/c2=N\NS(=O)(=O)c2ccc(C)cc2)cc1 | -3%
Cc1ccc(CCNC(=O)c2ccc(CSCc3ccccc3Cl)o2)cc1 | 1%
Cc1cc(C)nc(N2CCCC(C(=O)Nc3ccc(F)cc3)C2)n1 (stereo not drawn) | 7%
COc1cc(C(=O)NCC(=O)OCc2ccc(F)cc2)cc(OC)c1OC | 1%
COc1ccccc1N1CCN(C(=O)c2cc3c(=O)n(Cc4cccs4)ccc3nc2C)CC1 | 1%
Cc1ccc(NC(=O)CN(C)CC(=O)Nc2cccc(F)c2)cc1S(=O)(=O)N1CCCCCC1 | 2%
O=C(c1ccc(F)cc1)N1CCC(C(=O)N2CCN(S(=O)(=O)c3ccccc3Br)CC2)CC1 | 3%
C=CCn1c(SCC(=O)NC2CCCCC2)nnc1C(C)NC(=O)c1cccs1 (stereo not drawn) | 3%
Cc1nc(C)n(C(C)CNC(=O)c2ccco2)n1 (stereo not drawn) | 11%
COc1ccc(CCNC(=S)Nc2cc(C)ccc2C)cc1 | 7%
Cc1ccc(O)c(N)c1 | -4%
Oc1ccc(N2CCN(C(c3cccs3)c3nnnn3CCc3ccccc3)CC2)cc1 (stereo not drawn) | 1%
CCC(C(=O)OCC(=O)c1ccc2c(c1)NC(=O)CO2)c1ccccc1 (stereo not drawn) | -1%
O=C(NCCn1c(C(F)(F)F)nc2ccccc21)[C@H]1CCCN1c1nc(CN2CCCCC2)cs1 | -12%

Random excerpt: 4 compounds from above, in no set order.
SMILES | VDR inh
C=CCn1c(SCC(=O)NC2CCCCC2)nnc1C(C)NC(=O)c1cccs1 (stereo not drawn) | 3%
O=C(c1ccc(F)cc1)N1CCC(C(=O)N2CCN(S(=O)(=O)c3ccccc3Br)CC2)CC1 | 3%
Cc1nc(C)n(C(C)CNC(=O)c2ccco2)n1 (stereo not drawn) | 11%
COc1cccc(OC)c1C(=O)NC(=O)Oc1c(F)cccc1F | -5%

The results go on.
SMILES | VDR inh
NC(=O)c1ccc(NC(=O)COC(=O)c2cc([N+](=O)[O-])ccc2N2CCOCC2)cc1 | -9%
Cc1ccc(NC(=O)CSc2nnc(-c3ccc(Br)cc3)o2)c(C)c1 | 10%
Cc1ccc(C(=O)Nc2cccc(-c3ccc(N4CCOCC4)nn3)c2)cc1 | 11%
Cc1ccc(C(=O)NCC2CCCO2)cc1N1CCCC1=O (stereo not drawn) | 7%
CCN(CC(=O)Nc1ccc(OC)cc1)C(=O)c1ccccc1Sc1ccccc1C#N | -5%
O=C(CCCCn1c(=O)c2ccccc2n(Cc2ccccc2F)c1=O)NCc1ccccc1Cl | 10%
CC(C)C(=O)NC(=S)Nc1ccc(S(=O)(=O)N(C)C)cc1 | -11%
O=C(O)c1ccc(-n2c(=O)c3ccccc3c3ccccc3c2=O)cc1 | u
CCOC(=O)c1c(NC(=O)CSc2n[nH]c(N)n2)sc(CC)c1C | 22%
Brc1ccc(OCc2ccccc2)c(CNCc2ccncc2)c1 | -5%
O=C1CSC(c2ccccn2)N1c1ccc(Cl)c(Cl)c1 (stereo not drawn) | -7%
CCc1ccc(S(=O)(=O)NCCOc2cccc3cccnc23)cc1 | -20%
Cn1c(SCC(=O)Nc2nc3c(s2)CCCC3)nnc1-c1ccccc1 | 11%
Cc1ccc2c(c1)NC(=O)C(CC(=O)Nc1ccccc1Cl)O2 (stereo not drawn) | -9%
Cn1c(SCc2ccccc2F)nc2c([nH]c3ccccc32)c1=O | u
Cc1ccc(CNC(=O)c2ccc(NS(=O)(=O)c3cccs3)cc2)cc1 | -10%
Cc1ccc(Cn2nnc3c(=O)[nH]c(C4CCCN(C(=O)Nc5ccc(F)cc5F)C4)nc32)cc1 (stereo not drawn) | 2%
CCOc1ccc(C(C)=O)cc1CSc1nc(C)cc(C)n1 | -2%
CN1CCN(S(=O)(=O)c2ccc(Sc3nnc(-c4cccs4)n3-c3ccccc3)nc2)CC1 | -12%
COc1ccccc1CN(C)CC(=O)Nc1ccc(Cl)cc1C(F)(F)F | -12%
CC(=O)Nc1ccc(NC(=O)CCCNC(=O)c2ccc(Cl)cc2)cc1 | 1%
CN=C1N[C@H](c2ccccc2)N(c2ccccc2)S1 | 25µM*
CC1OC(Nc2ccc(OC(F)(F)F)cc2)C(O)C(O)C1O (stereo not drawn) | 6%
O=C(Cn1ncc2c3ccccc3n(Cc3ccccc3)c2c1=O)N1CCCCCC1 | 20%
CCOC(=O)CC(NS(=O)(=O)c1cc(-c2cc(C)no2)ccc1C)c1ccc(C)cc1 (stereo not drawn) | 9%

New compounds follow.
SMILES | VDR inh
S=c1[nH]c2cnccc2n1Cc1ccccc1 | -4%
Cc1sc2nc3ccc(N4CCCCC4)nn3c(=O)c2c1C | -15%
C/C(=C\C(=O)c1ccncc1)Nc1ccccc1O | -12%
O=C(NC(=S)Nc1cccnc1)c1cccs1 | u
Cc1cccc(/C=N/N2CCN(c3ccccc3)CC2)c1 | -14%
O=C(c1ccc(S(=O)(=O)N2CCCC2)cc1)N1CCN(S(=O)(=O)c2cccc(F)c2)CC1 | -15%
CC(=O)NC(CC(=O)Nc1cccc(S(=O)(=O)N2CCCC2)c1)c1ccccc1 (stereo not drawn) | 5%
O=C(NC1CCCC1)C(c1ccccc1)N(Cc1cccnc1)C(=O)Cc1cccs1 (stereo not drawn) | -7%
CCOc1ccccc1NC(=O)Cn1nnc(C(=O)NCCc2ccc(OC)c(OC)c2)c1N | 4%
COc1cc(NC(=O)C(C)C)ccc1NC(=O)c1cc2ccccc2o1 | 1%
O=C(/C=N/O)NCC1CCNCC1 | -6%
CC(C)N(C(=O)[C@H]1CC(CC(=O)NCCC2=CCCCC2)C(=O)N2CCc3c([nH]c4ccccc34)[C@]12C)C(C)C (stereo partly drawn) | 1%
C/C=C/C(=O)OCC(=O)Nc1ccccc1Br | -13%
COc1ccccc1OCc1cc(C(=O)N2CCN(C)C(c3ccccc3)C2)no1 (stereo not drawn) | -12%
Cc1cc(=O)oc2c3c(cc(OCC(=O)N4CCC[C@H]4C(=O)O)c12)OC(C)(C)CC3 | -16%
Cc1ccc(S(=O)(=O)NNC(=O)C(O)(c2ccccc2C)c2ccccc2C)cc1 | -13%
CN(C)CC/C=C1/c2cc(F)ccc2CSc2ccc(F)cc21 | -4%
Cc1cc(NC(=O)CCC(=O)N(CC(=O)NCC2CCCO2)c2ccc(F)c(Cl)c2)no1 (stereo not drawn) | 2%
C/C(CC(=O)Nc1ccc(OCc2ccccc2)cc1)=N\NC(=O)C(=O)Nc1ccc(C)c(Cl)c1 | -11%
COc1ccc(C(=O)NNC(=O)CCC(=O)NNC(=O)c2ccc(OC)cc2)cc1 | 3%
Cc1nc2ccccc2n1C(=O)N(C)C | -8%
O=C(N/C(=C\c1ccccc1)C(=O)N1CCOCC1)c1ccco1 | 6%
COc1ccccc1C/C(N)=N/OC(=O)COc1cccc2ccccc12 | -14%
Fc1ccc(CSc2ccc3nnc(-c4cccnc4)n3n2)cc1 | -17%
CCN(CC)S(=O)(=O)c1ccc(C(=O)NNC2=NS(=O)(=O)c3ccccc32)cc1 | 5%

An excerpt of the results above:
SMILES | VDR inh
COc1ccc(C(=O)NNC(=O)CCC(=O)NNC(=O)c2ccc(OC)cc2)cc1 | 3%
Cc1nc2ccccc2n1C(=O)N(C)C | -8%
O=C(N/C(=C\c1ccccc1)C(=O)N1CCOCC1)c1ccco1 | 6%
COc1ccccc1C/C(N)=N/OC(=O)COc1cccc2ccccc12 | -14%
Fc1ccc(CSc2ccc3nnc(-c4cccnc4)n3n2)cc1 | -17%
CCN(CC)S(=O)(=O)c1ccc(C(=O)NNC2=NS(=O)(=O)c3ccccc32)cc1 | 5%

Following part
SMILES | VDR inh
CSc1cccc(NC(=S)N2CCC(N(C)C3CCCC3)CC2)c1 | -10%
O=C(COC(=O)CN1C(=O)NC2(CCCCC2)C1=O)Nc1cc(F)ccc1F | 14%
Cc1cc(S(=O)(=O)NC2CCCCC2)ccc1OCC(=O)NCc1ccccn1 | 13%
C/C(=C\C(=O)c1ccccc1)Nc1ccc(Br)c(Cl)c1 | -10%
CCn1c(C(C)NC(=O)c2ccccc2C)n[nH]c1=S (stereo not drawn) | -16%
Cc1ccc(Nc2c(-c3ccc(O)cc3)nc3cccc(C)n23)cc1 | -12%
O=c1c([N+](=O)[O-])cccn1Cc1cccc(Cl)c1 | -25%
Oc1ccccc1/C=N/NC(=S)NCCc1ccccc1 | -18%
CCOc1ccc(Nc2nc(N)nc(CN3CCN(c4ccccc4F)CC3)n2)cc1 | -5%
CC(C)(C)OC(=O)N1CCC(c2c(C(=O)NCCCN3CCc4ccccc4C3)cnn2-c2ccccc2)CC1 | -2%
O=S(=O)(NCCc1csc(-c2cccnc2)n1)c1ccc(Cl)s1 | -12%
CCCCN(CC)CCCNC(=O)c1cc2c(-c3ccc(OC)c(OC)c3)nn(C)c2s1 | -6%&-23%
CCOC(=O)C1=C(C)Nc2nnnn2C1c1ccc(OC)c(Br)c1 (stereo not drawn) | 2%
CC(C)CCOc1ccc(C2(C)NC(=O)N(CN3CCOCC3)C2=O)cc1 (stereo not drawn) | 8%
CC(=O)Nc1ccc(S(=O)(=O)NCc2cccn2Cc2cccc(C)c2)cc1 | 4%
O=C1CC(N2CCC(c3nc4ccccc4s3)CC2)C(=O)N1Cc1ccccc1 (stereo not drawn) | -3%
COc1ccc(-c2nc(=S)[nH][nH]2)cc1OC | -20%
COc1cc(NC(=O)CCn2c(=O)oc3ccccc32)cc(OC)c1OC | -15%&-1%
CCC(=O)N1c2ccccc2CC1C(=O)N1CCN(c2ccccc2F)CC1 (stereo not drawn) | 13%
O=C1C[C@H](c2ccc3ccccc3c2)N1S(=O)(=O)c1ccccc1[N+](=O)[O-] | -19%
Cc1ccc(S(=O)(=O)Nc2cccc(C(=O)NCC(C)(C)N3CCOCC3)c2)cc1F | -11%
O=C1CC(c2ccccc2)Cc2nc3ncnn3cc21 (stereo not drawn) | 17%
O=C(CSCc1nc2cccnc2n1C1CCCCC1)NCc1cccc(Br)c1 | 11%
O=C(CNC(=O)Cc1ccccc1)NCC(=O)N1CCN(C(c2ccccc2)c2ccccc2)CC1 | -21%
COc1ccc2nc(SCC(=O)Nc3ccccc3C#N)[nH]c2c1 | -6%

Later entries
SMILES | VDR inh
COc1ccc(S(=O)(=O)N2CCSC2c2ccc(N)cc2)cc1 (stereo not drawn) | 15%
CCNS(=O)(=O)c1ccc(NC(=O)Nc2cc(C)ccc2OC)cc1 | -8%
CN(C)S(=O)(=O)c1ccc(N2CCN(S(=O)(=O)c3ccc(F)cc3)CC2)c(Cl)c1 | -10%
CCC1CCCCN1C(=O)c1sc2ncnc(N(CC)CC)c2c1C (stereo not drawn) | -6%
CS(=O)(=O)N(CCC#N)Cc1ccco1 | -16%
C/C(N)=C(/C#N)C(=O)COC(=O)CSc1ccccc1 | 1%
O=C(CCN1C(=O)[C@H]2CC=CC[C@H]2C1=O)NCc1nc(-c2ccc(Cl)cc2)no1 | -9%
Cc1cccnc1NC(=O)COc1ccc2c(c1)CCC2 | 19%
O=C(CNS(=O)(=O)c1ccc(Cl)cc1)N/N=C/c1ccco1 | 16%
O=C(O)CSC1CC(=O)N(c2ccc(Cl)c(Cl)c2)C1=O (stereo not drawn) | -3%
O=C(COC(=O)/C=C/c1ccc(Cl)cc1)Nc1cccc(S(=O)(=O)NC2=NCCCCC2)c1 | 21%
NC(=O)CC(NC(=O)Cc1cccc2ccccc12)c1ccc(NCCOc2ccccc2)c([N+](=O)[O-])c1 (stereo not drawn) | -15%
N#Cc1ccccc1COC(=O)c1cc(=O)c2ccccc2o1 | -10%

Screening data as filed in PubChem BioAssay.
